Assay outcomes (PubChem BioAssay)
Mtb growth = M. tuberculosis H37Rv growth inhibitors, H37Rv strain (AID 1626) | 220,000 tested, 0.95% active | inhibition, % at 10 µM, or IC50 in µM where a hit was titrated | M. tuberculosis H37Rv growth inhibition; higher % means a stronger effect;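 active = confirmed in a dose series; inconclusive = inhibition above 80% but not taken into the dose series; inactive = below 80% or under 30% at every dose of the series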;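 note: bacteria incubated seven days before Alamar blue readout; 0% = bacteria only wells and 100% = bacteria with antibiotic wells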
RecA intein inh = Mtb RecA intein splicing inhibition; 290,000 tested, 0.75% active; cell-free RecA intein splicing, fluorescence; AID 2221; inhibition, %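 (about 9 µM by stock and volumes)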; in the data active = inhibition above about 30%; inconclusive = no clear call, values can overlap the other calls;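 note: 0% = vehicle wells and 100% = reference inhibitor control wells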
Target sequence (P9WHJ3 whole entry, looked up): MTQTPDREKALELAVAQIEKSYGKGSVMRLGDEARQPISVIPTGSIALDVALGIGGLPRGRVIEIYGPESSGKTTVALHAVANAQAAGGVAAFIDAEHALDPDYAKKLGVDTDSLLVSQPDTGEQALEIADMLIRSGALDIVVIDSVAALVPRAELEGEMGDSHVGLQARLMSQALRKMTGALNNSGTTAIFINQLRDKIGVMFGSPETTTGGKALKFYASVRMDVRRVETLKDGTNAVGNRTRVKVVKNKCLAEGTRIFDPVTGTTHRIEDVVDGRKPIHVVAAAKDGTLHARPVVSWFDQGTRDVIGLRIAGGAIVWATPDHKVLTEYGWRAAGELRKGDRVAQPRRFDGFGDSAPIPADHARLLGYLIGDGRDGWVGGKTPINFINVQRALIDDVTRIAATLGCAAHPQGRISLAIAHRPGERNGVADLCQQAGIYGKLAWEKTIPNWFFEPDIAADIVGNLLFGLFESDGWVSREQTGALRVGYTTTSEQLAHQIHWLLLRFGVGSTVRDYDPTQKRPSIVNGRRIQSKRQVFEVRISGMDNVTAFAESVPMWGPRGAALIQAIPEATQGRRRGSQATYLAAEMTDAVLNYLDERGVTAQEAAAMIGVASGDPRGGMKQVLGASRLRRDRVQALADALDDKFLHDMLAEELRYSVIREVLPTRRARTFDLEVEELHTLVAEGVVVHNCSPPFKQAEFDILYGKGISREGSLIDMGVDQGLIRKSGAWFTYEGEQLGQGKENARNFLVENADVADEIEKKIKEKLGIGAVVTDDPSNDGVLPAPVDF
YopH PTP inh = inhibitors of Yersinia enterocolitica YopH tyrosine phosphatase; inhibition, %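 (about 10 µM by stock and volumes)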; fluorescence Ex485/Em525; AID 898; 140,000 tested, 0.16% active;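 active = inhibition of 50% or more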;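 note: controls were vehicle for no effect and minimum signal wells for full effect; inactives centre near -20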
Mtb bLac sens = beta-lactam sensitization of Mtb H37Rv; M. tuberculosis H37Rv growth with meropenem, percent inhibition; hits of this screen are not shown here; 330,000 tested, 0.27% active; AID 434955; inhibition, % at 25 µM;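 active = about 74% or more and at least 40 points above the plate without the antibiotic, then above 30% in a dose series; inconclusive = first-round hits that could not be retested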;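 note: growth measured after seven days incubation then overnight dye step; 0% = bacteria only wells and 100% = bacteria with antibiotic; twin plates without the antibiotic show which effects depend on it; some results filed as inactive read as strong as hits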
Arbovirus inh = antivirals against arbovirus infection; inhibition, % at 10 µM; 200,000 tested, 0.37% active; arbovirus infection cell-based antiviral screen;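 active = inhibition from about 30%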;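 note: bluetongue infection of BSR cells; cell survival read as ATP light after 72 h; 0% = infected wells without compound and 100% = uninfected wells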
Arbovirus inh repeat = also measured in Arbovirus inh; calls as there; inhibition, %; measured here: 10K subset replicate screen; many hits read low in the repeat;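 first of two repeat runs on a subset; 0% = infected and 100% = uninfected wells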
Starred values were filed as active, the others as inactive; ? = inconclusive; · = no result given. This is a subset; count on the stated rates, not on these rows.

SMILES	Mtb growth	RecA intein inh	YopH PTP inh	Mtb bLac sens	Arbovirus inh	others
Cn1c(=O)c2c(nc(N3CCOCC3)n2CCCNC2=NCCC2)n(C)c1=O	-3%	-2.0	-43	0	3
CCCCn1c(N)c(N(CCOC)C(=O)c2c(-c3ccccc3)noc2C)c(=O)[nH]c1=O	·	2.4	·	-11	·
Cc1ccc(S(=O)(=O)N(C)C)cc1NC(=O)COC(=O)CNC(=O)C12CC3CC(CC(C3)C1)C2	·	-0.8	·	1	·
COc1ccc(/C=C2\SC(=S)N(CCCC(=O)NNC(=O)c3ccccc3O)C2=O)cc1	2%	0.2	·	-2	-26
O=C(Cc1ccc(Br)cc1)N1CCN(Cc2ccccc2)CC1	8%	1.7	-11	17	-4	Arbovirus inh repeat=-17
O=C(CN1CC(c2ccccc2)CC1=O)Nc1ccc2c(c1)OCO2 (stereo not given)	·	5.2	-31	-3	-9	Arbovirus inh repeat=-2
CCCOC(=O)c1[nH]c2c(c1C)C(=O)CC(c1cccs1)C2 (stereo not given)	1%	-1.0	-32	-3	-14
CSc1ccc(CN2CCC(CO)(Cc3ccc(Cl)cc3)CC2)cc1	11%	1.4	·	-4	-2
CC[C@]12CCCN3CCc4c(n(c5ccccc45)C(=O)C1)C32 (stereo not given in full)	-3%	0.1	·	-4	·
O=C(Nc1ccc(O)cc1)c1cccc(Oc2ccc([N+](=O)[O-])cc2)c1	1%	15	·	7	-26
Cc1ccc(C(=O)NCC(=O)OCC(=O)c2ccc3c(c2)OCCO3)cc1C	-9%	2.1	-5	-5	4
O=[N+]([O-])c1cccc(/C([O-])=C(/C(=S)Nc2ccccc2F)[n+]2ccccc2)c1	0%	2.1	·	-1	1

Among those listed so far, two have an NH in an aromatic ring.
SMILES	Mtb growth	RecA intein inh	YopH PTP inh	Mtb bLac sens	Arbovirus inh	others
CCCCn1c(N)c(N(CCOC)C(=O)c2c(-c3ccccc3)noc2C)c(=O)[nH]c1=O	·	2.4	·	-11	·
CCCOC(=O)c1[nH]c2c(c1C)C(=O)CC(c1cccs1)C2 (stereo not given)	1%	-1.0	-32	-3	-14

Other records follow:
SMILES	Mtb growth	RecA intein inh	YopH PTP inh	Mtb bLac sens	Arbovirus inh	others
Cn1c(SCC(=O)c2ccc(F)cc2)nnc1-c1ccccn1	-5%	-0.5	·	-13	·
NNC(=O)c1cnn(Cc2ccccc2)c1N	-1%	-6.6	-3	-13	-33
COC(=O)C1=C(C(=O)c2ccccc2)C(c2ccc(O)c(OC)c2)n2nnnc2N1 (stereo not given)	-5%	·	11	-7	8
COc1ccc(C(=O)Nc2ccc3c(c2)n(C)c(=O)n3C)cc1OC	·	-2.1	·	0	·
CCOC(=O)c1oc2c(CN3CCN(C)CC3)c(O)ccc2c(=O)c1-c1ccc(Br)cc1	0%	-0.1	-16	-1	7
CCCCCCCCCC[N+](C)(C)CC/C=C1/c2ccccc2Sc2ccc(Cl)cc21	·	69*	·	100	·
CC(=O)OC(C(=O)NC1CCCCC1)c1cccc(F)c1 (stereo not given)	-4%	1.0	·	-3	4
CCOC(=O)C1=C(C)NC(C)=C(C(=O)OCC)C1c1ccc(C)o1	-3%	-1.0	·	-3	·
O=C(NN1C(=O)/C(=C/c2cc([N+](=O)[O-])ccc2O)SC1=S)c1ccccc1O	·	-3.9	·	28	·
C=CCSC1=Nc2sccc2C2=NC(=O)CN12	·	-4.8	20	3	5
Cc1cc(C)c(S(=O)(=O)NCc2nc3nc(C)cc(C)n3n2)c(C)c1	·	-1.8	·	1	·
Cc1cccc2sc(NNC(=O)c3ccc(S(=O)(=O)N4CC(C)CC(C)C4)cc3)nc12 (stereo not given)	1%	-3.8	-12	6	-34
Cc1c(Cl)c([N+](=O)[O-])nn1Cc1ccc(C(=O)N/N=C\c2cc(Cl)ccc2O)o1	6%	2.3	-72	1	-35
Cc1ccccc1NC(=S)N1CCCN(Cc2ccc(F)cc2)C1	-3%	0.7	·	2	7
Cc1ccc2cc(C)c3nnc(SCC(=O)N4CCCc5ccccc54)n3c2c1C	·	4.3	-31	0	-3
O=C(CNCCc1ccc(Cl)cc1Cl)NCc1ccco1	2%	-1.4	·	-10	7
O=S(=O)(Cc1ccccc1)NCc1ccccn1	-8%	1.9	-17	?	9
CSc1cccc(CN2CCC(n3nccc3NC(=O)C3CC3)CC2)c1	·	1.1	·	-3	·
Cc1nc2nc(-c3ccc(Cl)cc3)cn2nc1C	·	-30	-3	-2	-12
O=C(/C=C/c1ccco1)NCCc1ccc(F)cc1	·	13	·	2	·
CCOc1ccc(-c2nnn(CC#N)n2)cc1OC	5%	3.7	4	58	-9
COCCN(C(=O)CSc1n[nH]c(-c2ccccc2)n1)c1c(N)n(Cc2ccccc2)c(=O)[nH]c1=O	·	-2.1	·	-8	·
Cn1c(SCC(=O)NCCc2ccccc2)ncc(C(=O)Nc2ccc(F)cc2)c1=O	·	3.0	·	0	·
O=c1c2ccccc2sc2ccc(NCCCN3CCOCC3)cc12	12%	-7.0	·	1	·

Of the compounds above, these have an aryl methoxy group:
SMILES	Mtb growth	RecA intein inh	YopH PTP inh	Mtb bLac sens	Arbovirus inh	others
COc1ccc(/C=C2\SC(=S)N(CCCC(=O)NNC(=O)c3ccccc3O)C2=O)cc1	2%	0.2	·	-2	-26
COC(=O)C1=C(C(=O)c2ccccc2)C(c2ccc(O)c(OC)c2)n2nnnc2N1 (stereo not given)	-5%	·	11	-7	8
COc1ccc(C(=O)Nc2ccc3c(c2)n(C)c(=O)n3C)cc1OC	·	-2.1	·	0	·
CCOc1ccc(-c2nnn(CC#N)n2)cc1OC	5%	3.7	4	58	-9

More records follow:
SMILES	Mtb growth	RecA intein inh	YopH PTP inh	Mtb bLac sens	Arbovirus inh	others
NS(=O)(=O)c1ccc(CCNC(=O)c2cccnc2)cc1	-2%	0.0	-15	-3	-1
Cc1ccc(NC(=O)COc2ccc(N3CC(C(N)=O)CC3=O)cc2)c(C)c1 (stereo not given)	·	-7.0	·	-2	·
Cc1ccc(S(=O)(=O)C2(C(=O)N3CCCCCC3)CC2)cc1	-9%	0.5	8	1	-1
COC(=O)c1ccc(Cl)c(NC(=O)CSc2ncn[nH]2)c1	1%	0.9	-26	-16	3
Cc1n[nH]c(C)c1NC(=O)c1cc([N+](=O)[O-])ccc1Cl	-3%	-1.1	·	-2	-2
O=C(c1ccc(S(=O)(=O)c2ccccc2)cc1)N1CCc2ccccc2C1	2%	-1.6	-28	2	15
CCOC(=O)/C(=N\Nc1ccccc1Cl)N1CCN(c2ccccc2OC)CC1	5%	2.4	·	3	-21
CC(C)n1c(=O)c(C=Nc2ccc(F)cc2)c(O)n(Cc2ccco2)c1=O	2%	1.7	-9	2	-10
COc1ccc(C)cc1-n1c(SCC(=O)Nc2cc(C)on2)nc2ccccc2c1=O	3%	7.9	·	5	4
CC(C)C[C@@H]1NC(=O)[C@H](Cc2ccc(O)cc2)NC(=O)c2cc([N+](=O)[O-])cc(I)c2NCCC[C@@H](C(N)=O)NC1=O	-13%	·	26	0	11
O=C(Nc1ccccc1N1CCOCC1)c1cccs1	-1%	-5.8	-24	6	4
O=[N+]([O-])c1cc2c(cc1/C=N/n1c(-c3ccccc3)n[nH]c1=S)OCO2	-21%	-5.9	-11	6	2

Of the compounds above, seven have a nitro group on carbon.
SMILES	Mtb growth	RecA intein inh	YopH PTP inh	Mtb bLac sens	Arbovirus inh	others
O=C(Nc1ccc(O)cc1)c1cccc(Oc2ccc([N+](=O)[O-])cc2)c1	1%	15	·	7	-26
O=[N+]([O-])c1cccc(/C([O-])=C(/C(=S)Nc2ccccc2F)[n+]2ccccc2)c1	0%	2.1	·	-1	1
O=C(NN1C(=O)/C(=C/c2cc([N+](=O)[O-])ccc2O)SC1=S)c1ccccc1O	·	-3.9	·	28	·
Cc1c(Cl)c([N+](=O)[O-])nn1Cc1ccc(C(=O)N/N=C\c2cc(Cl)ccc2O)o1	6%	2.3	-72	1	-35
Cc1n[nH]c(C)c1NC(=O)c1cc([N+](=O)[O-])ccc1Cl	-3%	-1.1	·	-2	-2
CC(C)C[C@@H]1NC(=O)[C@H](Cc2ccc(O)cc2)NC(=O)c2cc([N+](=O)[O-])cc(I)c2NCCC[C@@H](C(N)=O)NC1=O	-13%	·	26	0	11
O=[N+]([O-])c1cc2c(cc1/C=N/n1c(-c3ccccc3)n[nH]c1=S)OCO2	-21%	-5.9	-11	6	2

The results go on:
SMILES	Mtb growth	RecA intein inh	YopH PTP inh	Mtb bLac sens	Arbovirus inh	others
COc1ccc(NC(=O)Cc2cccc3ccccc23)cc1	·	-0.8	·	-6	·
Cc1ccc(SC(C)C(=O)O/N=C(\N)c2ccncc2)cc1 (stereo not given)	·	0.5	·	5	·
Cc1cccc(C)c1NC(=O)CNC(=O)C(Cc1ccccc1)NC(=O)c1ccccc1 (stereo not given)	·	-2.1	·	1	·
CC(=O)OCC(=O)Nc1cc(S(=O)(=O)N2CCCCCC2)ccc1Cl	-9%	0.3	·	-5	1
COc1ccc(C(=O)NC(=S)N2CCCCC2)cc1[N+](=O)[O-]	?	-1.9	-31	43	2
N#Cc1ccccc1S(=O)(=O)N1CCN(C(=O)C2CCC2)CC1	·	-0.8	·	0	·
Cn1c(O)c(C=NCCN2CCNCC2)c(=O)n(C)c1=O	-9%	-1.8	-17	-4	3
Cc1ccc(S(=O)(=O)N(CCC(=O)O)Cc2ccc(Cl)cc2)cc1	-1%	-0.9	-18	3	-1
O=C(c1ccc(Cl)cc1Cl)C1(n2cncn2)Oc2ccccc2C1O (stereo not given)	-5%	3.6	-27	-8	-3
COc1ccc(N(Cc2cc(=O)[nH]c3ccccc23)C(C)=O)cc1	·	1.3	·	-10	·
Cc1cccc(C)c1NC(=S)/C(=C(\[O-])c1cccs1)[n+]1ccccc1	-1%	2.1	-22	-2	3
COc1ccccc1-c1ccc(=O)n(CC(=O)NCC2CCCO2)n1 (stereo not given)	4%	1.0	·	-10	3
Cc1ccc(C(=O)NNC(=O)CCC(=O)Nc2cc(C)on2)cc1	54%	-0.6	-5	-8	-5
CCc1ccc(/C=C/c2c[nH]c3ccccc23)[n+](CC)c1	2%	-6.4	-16	-6	11
O=C(NCCCCNC(=O)c1c(Cl)cccc1Cl)c1c(Cl)cccc1Cl	·	-1.0	·	-3	·
Cc1ccc(-n2cccc2/C=C2\C(=N)N3N=C(c4ccco4)SC3=NC2=O)cc1	6%	4.4	·	-3	46*
O=S(=O)(NCCCCCNS(=O)(=O)c1ccccc1)c1ccccc1	1%	1.3	-15	-1	7
O=C(NCC(F)(F)F)Nc1nnc(C(F)(F)F)s1	-3%	2.6	-47	-11	7
O=S(=O)(c1cccs1)N1CCN(c2ccccc2F)CC1	·	-1.7	·	-5	·
COc1ccccc1NC(=O)NN1CCCCC1	·	1.5	·	-5	·
Cc1nnc(SCc2ccc(F)cc2)s1	-9%	-2.6	11	-1	-1
CCOC(=O)c1ccc(NS(=O)(=O)c2ccc(-c3coc(C)n3)cc2)cc1	·	-1.3	·	-4	·
CN(C)c1ccc(NC(=O)Cc2ccccc2)c2ccccc12	·	-1.5	·	2	·
COc1ccc(CCNC(=O)CN2CCN(Cc3ccccc3F)C2=O)cc1OC	5%	-0.3	·	1	·
CCn1c(=O)c(C(=O)NCc2ccc(OC)c(OC)c2)c(O)c2ccccc21	0%	4.2	-14	-8	6
CC(=O)c1cccc(NC(=O)NNC(=O)c2ccc(Cl)cc2Cl)c1	-9%	·	·	-4	6
CCC(c1ccccc1)c1nc(-c2ccccn2)no1 (stereo not given)	5%	1.5	-52	-11	-5	Arbovirus inh repeat=-6
CC(C)(C)c1ccc(C(=O)NC2CCS(=O)(=O)C2)cc1 (stereo not given)	·	0.9	·	6	·
Cc1ccccc1CS(=O)(=O)Cc1ccc(C(=O)NCc2ccccn2)o1	-2%	-4.9	6	-3	-8
CCn1c(SCC(=O)N2CCCc3ccccc32)nnc1-c1ccco1	2%	-0.5	-32	-1	3
CCN(C(=O)CSc1nc2nc(C)cc(C)n2n1)c1cccc(C)c1	-14%	-0.4	-34	-9	3
